TR SRC2 fluor cs: Total Fluorescence Counterscreen for Inhibitors of the Interaction of Thyroid Hormone Receptor and Steroid Receptor Coregulator 2 | TRb/SRC2 Texas Red total fluorescence interference | Potency, µM (series often up to 106 µM), for the others: at the highest dose fluorescence change, negative = quenching | 280,000 tested, 0.29% active | AID 1479, 2009; active = well fitted curve in either direction with a large enough effect; inconclusive = small, poorly fitted or top-dose-only effect
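Flags fluorescent or light-absorbing compounds by total fluorescence, S + 2P, at 555 nm excitation and 632 nm emission. Mixture: 20 nM Texas Red SRC2 peptide, 0.6 uM human TRb LBD, 1 uM T3, 5% DMSO; compound exposure 5 h at ambient temperature.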
GLA spleen mod: qHTS Assay for Inhibitors and Activators of Human alpha-Galactosidase From Spleen Homogenate. Alpha-galactosidase A (Homo sapiens), P06280. human spleen homogenate, 4MU-alpha-Gal fluorescence, 40 min. Potency, µM (highest dose often 80 µM), for inactives: at the highest dose activity change, negative = inhibition, hits mostly inhibitors. 240,000 tested, 0.008% active;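 also: 0% = enzyme with vehicle and -100% = no enzyme basal signal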
Target sequence (P06280 32-429 limits assumed): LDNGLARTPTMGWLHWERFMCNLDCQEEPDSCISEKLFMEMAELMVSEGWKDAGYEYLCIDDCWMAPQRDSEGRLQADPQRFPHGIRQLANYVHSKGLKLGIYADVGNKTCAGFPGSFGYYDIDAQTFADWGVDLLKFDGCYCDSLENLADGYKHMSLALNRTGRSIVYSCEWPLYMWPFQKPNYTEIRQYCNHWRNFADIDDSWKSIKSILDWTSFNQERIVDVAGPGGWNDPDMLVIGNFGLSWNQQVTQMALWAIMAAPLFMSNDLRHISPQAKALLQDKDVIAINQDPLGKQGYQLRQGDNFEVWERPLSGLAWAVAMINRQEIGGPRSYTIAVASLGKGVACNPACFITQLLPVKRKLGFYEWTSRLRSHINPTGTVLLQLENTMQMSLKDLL
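Fluorogenic readout (Ex 365/Em 440 nm) of 4-methylumbelliferone released from 1 mM 4-MU-alpha-galactoside by spleen homogenate, 40 min at 37C, pH 5.0. Data normalized to no-enzyme and enzyme controls; Hill-equation AC50 from compound titrations.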
Tau fluor counter: Counterscreen qHTS for Inhibitors of Tau Fibril Formation, Fluorescence Polarization. tau K18 P301L Alexa594 fluorescence, heparin fibrillization. Potency, µM (highest dose often 57.7 µM), inactives show top-dose activity change, negative = decrease. 280,000 tested, 0.93% active; also: nearly all actives have a fitted effect of over 55% in size
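Human K18 P301L tau (15 uM unlabeled plus 0.24 uM Alexa 594-labeled, final) in 100 mM sodium acetate pH 7 was mixed with compound and 20 uM heparin and incubated 6 hr at 37 C.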
Tau FP inhib: qHTS for Inhibitors of Tau Fibril Formation, Fluorescence Polarization. Potency, µM (series often up to 57.7 µM), without a hit: at the top dose activity, negative = inhibition, most hits filed as inhibitors. Microtubule-associated protein tau (Homo sapiens), P10636. K18 P301L tau heparin fibrillization, Alexa594 FP, 6 h. AID 1468, 2008. 280,000 tested, 0.39% active; also: nearly all actives have a fitted effect of over 55% in size
Target sequence (P10636 561-689 P618L limits assumed): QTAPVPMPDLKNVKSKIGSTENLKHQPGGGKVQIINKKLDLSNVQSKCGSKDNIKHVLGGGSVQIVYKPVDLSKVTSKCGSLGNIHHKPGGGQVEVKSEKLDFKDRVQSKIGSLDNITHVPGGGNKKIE
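K18 P301L tau (15 uM unlabeled/0.24 uM Alexa 594-labeled, final) + compound + heparin 20 uM final; 100 mM NaOAc pH 7; 6 hr 37 C; ThT 30 uM final added, 1 hr RT; FP ex 555/em 632 nm.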
Tau ThT inhib: qHTS for Inhibitors of Tau Fibril Formation, Thioflavin T Binding | recombinant tau K18 P301L (four-repeat tau fragment), heparin-induced fibrillization, ThT fluorescence | Potency, µM (titrated, usually from 57.4 µM), for inactives: at the top dose activity, negative = inhibition, hits mostly inhibitors | 270,000 tested, 2.1% active; also: nearly all actives have a fitted effect of over 55% in size
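Recombinant human tau K18 fragment […] carrying P301L, 15 uM unlabeled plus 0.24 uM Alexa 594-labeled, was fibrillized with 20 uM heparin in 100 mM sodium acetate pH 7 for 6 hr at 37 C; 30 uM ThT fluorescence read after 1 hr.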
TRb-SRC2 inh: qHTS for Inhibitors of the Interaction of Thyroid Hormone Receptor and Steroid Receptor Coregulator 2. Thyroid hormone receptor beta (Homo sapiens), P10828. TRbeta-SRC2 peptide binding, fluorescence polarization; receptor liganded with 1 µM T3. Potency, µM (titrated, usually from 106 µM), without a hit: at the top dose activity change, negative = inhibition, actives largely listed as inhibitors. 280,000 tested, 0.065% active. AID 1469, 2008;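 also: plate controls were bound peptide for no effect and peptide without receptor for full effect; nearly all actives have a fitted effect of over 50% in size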
Target sequence (P10828 whole entry, looked up): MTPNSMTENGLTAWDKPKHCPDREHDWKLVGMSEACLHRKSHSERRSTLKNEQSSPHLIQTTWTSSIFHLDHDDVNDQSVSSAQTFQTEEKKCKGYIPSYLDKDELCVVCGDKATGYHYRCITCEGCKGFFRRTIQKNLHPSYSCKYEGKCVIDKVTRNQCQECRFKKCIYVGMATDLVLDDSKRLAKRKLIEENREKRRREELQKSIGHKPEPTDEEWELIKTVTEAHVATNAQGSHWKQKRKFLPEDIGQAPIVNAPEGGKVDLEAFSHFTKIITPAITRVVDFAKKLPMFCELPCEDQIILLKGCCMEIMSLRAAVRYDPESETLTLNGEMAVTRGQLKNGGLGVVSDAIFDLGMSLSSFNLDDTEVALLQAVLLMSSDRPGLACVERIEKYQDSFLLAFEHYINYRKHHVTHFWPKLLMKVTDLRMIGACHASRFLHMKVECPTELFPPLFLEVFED
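A fluorescence polarization screen tested compounds at multiple concentrations against complex formation between 0.6 uM TRb ligand-binding domain and 20 nM Texas Red SRC2 peptide, with 1 uM T3 present; readout after 5 hr.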
L3MBTL1 block: qHTS Assay for the Inhibitors of L3MBTL1; AlphaScreen L3MBTL1–H3K9me1 peptide binding; Potency, µM (highest dose often 57.1 µM), for inactives: at the top dose activity, negative = inhibition, most hits filed as inhibitors; 230,000 tested, 0.66% active; AID 485360, 2010; also: nearly all actives have a fitted effect of over 60% in size
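First, the protein-peptide complex forms for 30 min at room temperature (L3MBTL1 50 nM, biotinylated H3K9me1 peptide 75 nM). Next, compounds are pin-transferred and incubated 30 min. Finally, AlphaScreen beads are added and read after 30 min.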
Starred values were filed as active, the others as inactive; ? = inconclusive; . = not tested or not shown; [ ] = another dose, or the depositor's remark. Unless noted, calls follow the shape of the dose curve; as a rule, active = well fitted curve in the direction sought with a large enough effect; inconclusive = small, poorly fitted or top-dose-only effect, or another doubt; inactive = no such curve, though single readings can be large; an effect the other way counts as inactive or inconclusive. Unless noted, % is scaled to controls: 0 for no effect and ±100 for the full control effect; potency is read from the fitted curve at half-maximal effect. Some of the compounds tested; the hit share may differ from the screen's.

SMILES	TR SRC2 fluor cs	GLA spleen mod	Tau fluor counter	Tau FP inhib	Tau ThT inhib	TRb-SRC2 inh	L3MBTL1 block
Clc1ccc(SCc2csc(N3CCOCC3)n2)cc1	-1%	17%	-24%	3%	?	2%	-2%
O=C(N/N=C/c1ccc(OCCCF)cc1)c1ccc(C(F)(F)F)cc1	0%	9%	-8%	-7%	-16%	-1%	-17%
O=C(c1ccc(Br)o1)N1CCN(c2ccccn2)CC1	-4%	8%	2%	5%	1%	2%	-16%[11.4 µM]
CC(C)CC(=O)NCC(C)NC(=O)CC(C)C (centres undefined)	-5%	0%	16%	8%	14%	-6%	-1%
OC1(c2ccccc2)CCN(Cc2ccccc2)CC1	-4%	5%	1%	1%	2%	-3%	.
S=c1nc(C2CCCCC2)n(-c2ccccc2)[nH]1	0%	-1%	-10%	-2%	-9%	7%	.
CC(C)CCC(C(=O)O)C(C)CC(=O)NC1CCCCC1 (centres undefined)	-1%	4%	-7%	-11%	-12%	-14%	0%[11.4 µM]
C=CCOc1c(CNc2ccc(C(=O)O)cc2)cccc1OC	4%	8%	-6%	-3%	-5%	-5%	3%
CCc1cccc(NC(=O)C2CCN(S(=O)(=O)c3c(C)noc3C)CC2)c1	1%	4%	-14%	2%	1%	0%	.
CCC(=O)N1CCc2cc(Br)cc(S(=O)(=O)N3CCN(C(=O)c4ccco4)CC3)c21	0%	2%	-3%	9%	-5%	-10%	2%
CCn1ccnc1CN(C)Cc1nc(-c2ccc3c(c2)OCO3)no1	1%	-13%	1%	-5%	3%	3%	-9%
Cn1c(=O)c2c(nc(NCC(O)CO)n2CCc2ccccc2)n(C)c1=O (centres undefined)	-4%	-3%	-10%	-10%	-7%	-7%	.
Cc1ccc(NC(=O)C(C)C(=O)Nc2ccc(C)cc2)cc1	-1%	-4%	2%	0%	11%	6%	.
O=C(c1csnn1)N1CCC2(CCCN(C(c3ccccc3)c3ccccc3)C2)CC1	.	-7%	.	.	.	.	.
COc1ccc(-c2nn(-c3ccccc3)cc2CO)cc1	2%	-16%	-19%	-14%	-7%	-12%	.
COc1ncnc(NS(=O)(=O)c2ccc(N)cc2)c1OC	-1%	1%[29.1 µM]	.	.	.	-1%	9%
COC(=O)c1ccc(N=Cc2c(C(F)(F)F)[nH][nH]c2=O)cc1	-3%	5%	-4%	6%	-17%	0%	11%
CC(=O)Nc1ccc(-n2c(C)c(C(C)=O)c(C(C)=O)c2C)cc1	0%	2%	3%	6%	-1%	-4%	-9%
Cc1ccc(C)c(N(CC(N)=O)S(C)(=O)=O)c1	2%	-9%	-2%	-7%	1%	-11%	10%
O=C(c1cnn2c1NC(c1ccc(Br)cc1)CC2C(F)(F)F)N1CCN2CCCC2C1 (centres undefined)	-1%	-5%	-12%	2%	-14%	-2%	-4%
COC(=O)c1ccc(/C=C/C(=O)c2ccc(OC)cc2)cc1	-3%	2%	-2%	8%	?	7%	-8%
NC(=O)C1CCCN(C(=O)Nc2cccc3ccccc23)C1 (centres undefined)	0%	13%	3%	11%	4%	6%	.
COc1cccc(Cn2cnc3c([N+](=O)[O-])c(C)c(C)cc32)c1	-2%	-5%	-15%	-1%	-16%	-5%	10%
Cc1cc([N+](=O)[O-])nn1CC(=O)N1c2ccccc2CC1C (centres undefined)	-2%	-2%	11%	0%	8%	-3%	8%
c1ccc(C(c2ccccc2)c2noc(CN3CCC(c4ccncc4)CC3)n2)cc1	-4%	-3%	2%	8%	-18%	-9%	-22%

Shown with each value named: entries from further up.
molecule: CCn1ccnc1CN(C)Cc1nc(-c2ccc3c(c2)OCO3)no1
  TR SRC2 fluor cs: 1% | GLA spleen mod: -13% | Tau fluor counter: 1% | Tau FP inhib: -5% | Tau ThT inhib: 3% | TRb-SRC2 inh: 3% | L3MBTL1 block: -9%
molecule: Cn1c(=O)c2c(nc(NCC(O)CO)n2CCc2ccccc2)n(C)c1=O (centres undefined)
  TR SRC2 fluor cs: -4% | GLA spleen mod: -3% | Tau fluor counter: -10% | Tau FP inhib: -10% | Tau ThT inhib: -7% | TRb-SRC2 inh: -7% | L3MBTL1 block: .
molecule: Cc1ccc(NC(=O)C(C)C(=O)Nc2ccc(C)cc2)cc1
  TR SRC2 fluor cs: -1% | GLA spleen mod: -4% | Tau fluor counter: 2% | Tau FP inhib: 0% | Tau ThT inhib: 11% | TRb-SRC2 inh: 6% | L3MBTL1 block: .

Given with values under each structure: part of the list above
Each structure is followed by: TR SRC2 fluor cs | GLA spleen mod | Tau fluor counter | Tau FP inhib | Tau ThT inhib | TRb-SRC2 inh | L3MBTL1 block
> Clc1ccc(SCc2csc(N3CCOCC3)n2)cc1
  -1% | 17% | -24% | 3% | ? | 2% | -2%
> O=C(N/N=C/c1ccc(OCCCF)cc1)c1ccc(C(F)(F)F)cc1
  0% | 9% | -8% | -7% | -16% | -1% | -17%

(cont.)
SMILES	TR SRC2 fluor cs	GLA spleen mod	Tau fluor counter	Tau FP inhib	Tau ThT inhib	TRb-SRC2 inh	L3MBTL1 block
Cc1occc1-c1nnc(SCC(=O)c2cc3ccccc3oc2=O)o1	-10%	-2%	-15%	-6%	?	-3%	-8%
O=C1c2ccccc2C(=O)C1(CO)c1ccccc1	-1%	9%	-12%	-15%	?	7%	.
COC(=O)C1=C(C)N(c2ccc(Cl)cc2)/C(=C/c2cccs2)C1=O	-4%	4%	-5%	10%	-15%	-1%	1%
COc1cccc(/C=N/NC(=O)CCCc2ccc(OC)c(C)c2)c1	?	-3%	-21%	-2%	?	0%	-5%
CCOc1cc(-n2nc(C)c(C#N)c2N)nc(SC)n1	-7%	2%	-3%	-5%	0%	3%	-1%
C/C(=N\NC(=O)c1ccc(Cl)cc1)c1ccc(Br)s1	-1%	5%	-5%	-9%	-20%	4%	-6%
CCOC(=O)c1ccc(NC(=S)Nc2ccc(Cl)cn2)cc1	1%	-5%	2%	-4%	0%	3%	3%
CCOC(=O)C1CCCN(C(=O)c2cc(Nc3ccc(OC)cc3)nc3ccccc23)C1 (centres undefined)	1%	2%	?	?	?	0%	.
Cc1[nH]n(-c2ccccc2)c(=O)c1C=NC1CCCCCC1	0%	-14%	-17%	-6%	-10%	-5%	-9%
CCC(CC)NC(=O)c1ccc2nc[nH]c2c1	-6%	8%	-8%	-11%	-10%	-4%	.
Cc1ccc(-c2nn(CC(=O)NCC3CCCO3)c(=O)c3ccccc23)cc1 (centres undefined)	-3%	0%	4%	11%	-1%	-1%	-2%
O=C(CSc1nc2c(c(=O)n1-c1ccc(Cl)cc1)SCC2)Nc1nccs1	3%	-3%	-4%	-10%	-3%	-28%	.
O=C(NCc1nc2ccccc2[nH]1)c1c(F)c(F)c(F)c(F)c1F	-3%	-2%	4%	2%	0%	-4%	1%
NC(=O)NC(=O)CSc1nnc(-c2ccc(Cl)cc2)n1CC1CCCO1 (centres undefined)	-1%	2%	10%	8%	6%	-2%	1%
COc1ccc(N(CN2C(=O)c3ccccc3C2=O)C(=O)COc2ccc(Cl)cc2Cl)cc1	?	2%	-17%	5%	-4%	0%	-6%
CCOc1ccccc1NC(=O)CN1C(=O)CSC(C)C1=O (centres undefined)	1%	3%	3%	-4%	0%	-1%	15%
Cc1ccc2nc(Cl)c(CN(C(=O)c3cnccn3)C3CCCCC3)cc2c1	-4%	2%	-9%	-4%	-9%	-4%	5%
N#Cc1ccc(OCC(O)CS(=O)(=O)c2ccccc2)cc1 (centres undefined)	-5%	-5%	15%	8%	10%	-11%	-2%
COC(=O)c1ccc(COC(=O)CNC(=O)c2ccc(-c3ccccc3)cc2)cc1	-2%	-1%	-12%	-8%	?	-1%	-1%
CCc1ccc(NC(=O)C2C3C=CC(C4CC34)C2C(=O)O)cc1 (centres undefined)	-8%	-16%	-1%	5%	-9%	5%	4%
CCOC(=O)c1ccc(NC(=O)NC2CC3CCC(C2)N3)cc1 (centres undefined)	-1%	-5%	-15%	-7%[2.34 µM]	?	-3%	4%
COc1ccc(N2CCN(C(=O)c3ccc(F)cc3)CC2)c([N+](=O)[O-])c1	-6%	-3%	-1%	4%	2%	5%	-5%[11.4 µM]
Cc1ccc(-c2nc(-c3ccccc3)no2)cc1	3%	5%	-9%	-1%	-13%	6%	.
CCOC(=O)N1CCC(N2C(=O)c3ccccc3C2Nc2cccnc2)CC1 (centres undefined)	-3%	2%	12%	2%	0%	-2%	-2%
COc1ccc(-c2nc(CN3CCN(c4ncnc5ccccc45)CC3)c(C)o2)c(OC)c1	0%[53 µM]	7%	-9%	2%	-15%	5%[53 µM]	-16%
SMILES	TR SRC2 fluor cs	GLA spleen mod	Tau fluor counter	Tau FP inhib	Tau ThT inhib	TRb-SRC2 inh	L3MBTL1 block
Cc1cc(NC(=O)/C=C/C(=O)N(c2ccccc2C)C(C(=O)NC2CCCC2)c2ccc(F)cc2)no1 (centres undefined)	2%	-3%	1%	5%	-7%	-4%	-8%
O=C(NCCC1=CCCCC1)c1ccc2c(=O)n3c(nc2c1)CCCCC3	-3%	-11%	-6%	2%	-1%	0%	8%
N/C(=N\OC(=O)c1cc(Cl)ccc1Cl)c1cccnc1	0%	5%	-17%	-7%	-19%	-1%	.
CC(CNC(=O)CCc1nnc(CCC2CCCCC2)o1)c1ccccc1 (centres undefined)	-6%	11%	-5%	4%	-11%	1%	7%
O=C(Cn1c(=O)[nH]c2ccsc2c1=O)NC1CCCCC1	-3%	-12%	-8%	-9%	-13%	-3%	2%
O=C(Cc1ccccc1[N+](=O)[O-])NCCC1=CCCCC1	1%	1%	-2%	7%	-1%	-3%	5%
Cc1cc(N2C(=O)C3C4CC(C(Br)C4Br)C3C2=O)no1 (centres undefined)	-13%	4%	-2%	8%	0%	-1%	23%
COCCOC(=O)C1=C(C)NC(=O)NC1c1c(F)cccc1Cl (centres undefined)	-6%	0%	-5%	-2%	-5%	1%	5%
O=C(Nc1nc2ccccc2s1)c1ccccc1	-3%	3%	-20%	-8%	-11%	-12%	.
CCOc1ccc2nc(N3CCC(C(=O)N4CCN(C5CCCCC5)CC4)CC3)sc2c1	1%	-3%	-4%	9%	-1%	-5%	45%[activator]
CCC(NC(=O)NC1=NCCS1)(C(F)(F)F)C(F)(F)F	2%	6%	-4%	1%	-2%	-2%	-2%
